Rango complex inh – qHTS Assay for Inhibitors of Rango (Ran-regulated importin-beta cargo) - Importin beta complex formation; Importin subunit beta-1 (Homo sapiens), Q14974; Rango CFP/YFP FRET sensor + importin beta, 45 min; 340,000 tested, 0.031% active; AID 540263, 2011; Potency, µM (doses to about 92.2 µM), for inactives: at the top dose inhibition of complex formation; active = rising FRET ratio curve, often small or poorly fitted; inconclusive = mostly compound fluorescence or quenching in the first reads; inactive = flat curves in all reads;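 further: potency means the concentration at half of the fitted maximal effect; 0% = DMSO wells and 100% = buffer wells lacking importin beta; nearly all actives have a fitted effect of over 15% in size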
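FRET biosensor (snurportin 1 IBB flanked by EYFP and cerulean), 50 nM, with compound 5 min, then 0.125 microM importin beta in PBS, 1 mM DTT, 0.02% Tween-20, 0.1% BSA. CFP/YFP ratio read after 45 min at room temperature; pre-read flags interference.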
GLA inh pH 4.5 – qHTS Assay for Inhibitors of Human alpha-Galactosidase at pH 4.5; Alpha-galactosidase A (Homo sapiens), P06280; 230,000 tested, under 10 active; purified enzyme, 4-MU-alpha-Gal fluorescence, pH 4.5; AID 1467, 2008; activity change, negative = inhibition, % at 105 µM; inconclusive = small, poorly fitted or top-dose-only inhibition, or a rising curve; inactive = flat fitted curve, though single readings scatter; no compound was filed as active;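 further: 0% = full activity with enzyme and -100% = basal without enzyme; dose as in the result columns while the protocol names 77 µM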
Target sequence (P06280 whole entry, looked up): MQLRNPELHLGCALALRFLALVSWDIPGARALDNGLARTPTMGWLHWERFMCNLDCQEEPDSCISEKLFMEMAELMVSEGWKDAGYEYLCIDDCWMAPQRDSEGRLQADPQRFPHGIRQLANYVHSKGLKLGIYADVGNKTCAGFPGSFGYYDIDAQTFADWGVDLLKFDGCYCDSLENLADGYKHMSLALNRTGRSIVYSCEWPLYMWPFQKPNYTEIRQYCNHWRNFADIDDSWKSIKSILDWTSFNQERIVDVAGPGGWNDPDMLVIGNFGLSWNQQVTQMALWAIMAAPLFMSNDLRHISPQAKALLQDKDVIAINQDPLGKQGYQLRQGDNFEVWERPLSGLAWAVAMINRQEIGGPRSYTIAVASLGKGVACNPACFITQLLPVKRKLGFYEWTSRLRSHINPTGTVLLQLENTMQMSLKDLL
Rango release inh – qHTS Assay for Inhibitors of RanGTP induced Rango (Ran-regulated importin-beta cargo) - Importin beta complex dissociation | Snurportin-1 (Homo sapiens) + GTP-binding nuclear protein Ran (Homo sapiens) + Importin … | Biochemical FRET Rango-importin beta, RanGTP-induced dissociation | Potency, µM (titrated, usually from 46.1 µM), for the others: top-dose activity change, negative = inhibition | 340,000 tested, 0.071% active; active means falling FRET ratio curve, often poorly fitted, with flat reads before Ran was added; inconclusive means other falling curves, or compound fluorescence or quenching; inactive means flat or rising ratio curve;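 further: potency means the concentration at half of the fitted maximal effect; % of control where 0% means no effect; nearly all actives have a fitted effect of over 45% in size; -100% = wells without RanGTP and RCC1; the record marks most hits as doubtful in a second field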
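Compounds sat 5 min at room temperature with 0.1 uM Rango biosensor plus 0.25 uM importin beta, then FRET pre-read. RanGTP-RCC1 (0.6 uM Ran, 2mM GTP, 0.2 uM RCC1) added for 45 min, and the CFP/YFP post-read measured blocked complex dissociation.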
miR-21 reporter – qHTS Assay for Modulators of miRNAs and/orActivators of miR-21; HeLa miR-21 FLuc reporter, luciferase, 48 h; Potency, µM (doses to about 38.3 µM), for inactives: at the top dose reporter change, positive = more light; 340,000 tested, under 10 active; active = well fitted rising curve with a large enough effect; inconclusive = small, poorly fitted or top-dose-only effect; inactive = no such curve, though single readings can be large or run the other way;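 further: % of control where 0% means no effect; miR-21 action dims this reporter so a rising signal means less miR-21 action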
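HeLa cells endogenously expressing miR-21, stably carrying CMV-driven firefly luciferase with a downstream miR-21 binding site, 2000 cells/well. Titrations up to approximately 40 uM, 48 hours; luciferase luminescence read.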
Active calls of the source: *; u = inconclusive; x = no result given; & = joins results of further samples. An excerpt; the hit share may differ from the screen's.

Rango complex inh | GLA inh pH 4.5 | Structure | Rango release inh | miR-21 reporter
-4.3% | 2.2 | O=C(c1ccco1)N1CCN(S(=O)(=O)c2ccccc2[N+](=O)[O-])CC1 | -13.4% | -5.4%
-3.4% | x | CCOC(=O)C1=C(COC(=O)c2ccc(C)s2)NC(=O)NC1C (stereo not given) | -13.3% | x
0.8% | 1.8 | O=C(CCl)Nc1cc(S(=O)(=O)N2CCCCCC2)ccc1Cl | 1.2% | u
2.0% | -0.2 | Cc1cc(C)cc(N(CC(=O)NCC2CCCO2)C(=O)CN2C(=O)COc3ccccc32)c1 (stereo not given) | 0.6% | 0.9%
x | 0.6 | Cc1ccc(S(=O)(=O)NN2C(=O)/C(=C/c3cccn3C)SC2=S)cc1 | x | -3.5%
4.1% | x | COc1cc(C(=O)N2CCc3ccccc32)c([N+](=O)[O-])cc1OC | -7.9% | 1.1%
u | -13.1 | CCCn1c(N/N=C\C=C\c2ccccc2)nc2c1c(=O)[nH]c(=O)n2C | -10.3% | -4.4%
-2.0% | u | COc1cccc(-c2nc(N3CCN(Cc4ccccc4)CC3)c3ccccc3n2)c1O | 0.1% | 6.4%&-7.9%
0.6% | -3.3 | CCCOc1ccc(NC(=O)CC2C(=O)N(CC)C(=S)N2Cc2cccs2)cc1 (stereo not given) | 21.8% | 12.9%
-0.5% | -7.3 | C=CCNC(=O)/C(=C/c1cn(-c2ccccc2)nc1-c1cccc([N+](=O)[O-])c1)NC(=O)c1ccccc1 | -6.1% | -4.9%
-1.9% | x | CCn1c(=O)c2sccc2n(Cc2cccc(C)c2)c1=O | -2.8% | -5.3%
1.7% | -2.1 | CCCCC1=C([O-])C2N=CC=CC2=[N+](c2ccccn2)C1=O (stereo not given) | 38.3% | 1.4%
u | 8.0&-12.9 | COC(=O)CCCC1=CC2=C(c3ccccc3)C(=O)C(C)(OC(=O)C3CCCC3)C(=O)C2=CN1C1CCCCC1 (stereo not given) | u | 9.5%
-3.1% | x | O=C(COC(=O)c1ccc(O)cc1O)Nc1ccc(Cl)cn1 | -9.7% | 2.9%
0.0% | 4.9 | Cc1ccc(NC(=O)N2CCC(C(=O)NCCC3=CCCCC3)CC2)cc1 | -15.9% | -1.2%
-0.5% | 2.4 | Cc1onc(-c2ccccc2Cl)c1C(=O)Nc1cccnc1 | 1.6% | -8.9%
-2.8% | x | CC(=O)N1CCN(C(=O)COC(=O)CNC(=O)c2ccc(C)cc2)CC1 | -3.4% | x
4.9% | -2.4 | CC(C)OC(=O)c1cc(=O)[nH]c2ccccc12 | -0.1% | -14.4%
1.7% | x | CCN(CC(=O)Nc1ccccc1OC)C(=O)CN1C(=O)NC(C)(c2ccc3ccccc3c2)C1=O (stereo not given) | -1.7% | x
1.4% | 8.8 | O=C(Nc1ccc(NC(=O)c2ccco2)c(Cl)c1)c1cccc([N+](=O)[O-])c1 | 3.7% | 2.5%
1.5% | x | CC(C)C(=O)Nc1ccc(N2CCOCC2)c(S(=O)(=O)Nc2ccccc2Cl)c1 | -4.5% | x
-1.9% | x | Cc1ccc(NC(=O)CS(=O)c2ccccc2N)c(C)c1 (stereo not given) | 15.3% | -43.4%
3.4% | 8.5 | COc1cccc(CC(=O)Nn2c(C)nc3ccccc3c2=O)c1 | -7.1% | -0.8%
-1.6% | 4.5 | C/C(CC(=O)Nc1cc(C)ccn1)=N\NC(=O)c1cccc(C)c1 | -7.6% | -17.7%
4.5% | 3.3 | COc1ccc(S(=O)(=O)N2CCOCC2)cc1NC(=O)CSc1n[nH]c(C(C)C)n1 | -4.6% | 0.8%

Copied from the list.
COc1ccc(S(=O)(=O)N2CCOCC2)cc1NC(=O)CSc1n[nH]c(C(C)C)n1 in GLA inh pH 4.5 reads 3.3
COc1cccc(CC(=O)Nn2c(C)nc3ccccc3c2=O)c1 in miR-21 reporter reads -0.8%
COC(=O)CCCC1=CC2=C(c3ccccc3)C(=O)C(C)(OC(=O)C3CCCC3)C(=O)C2=CN1C1CCCCC1 (stereo not given) in miR-21 reporter reads 9.5%
CCn1c(=O)c2sccc2n(Cc2cccc(C)c2)c1=O in miR-21 reporter reads -5.3%
CC(C)OC(=O)c1cc(=O)[nH]c2ccccc12 in Rango release inh reads -0.1%

The list goes on.
Rango complex inh | GLA inh pH 4.5 | Structure | Rango release inh | miR-21 reporter
0.6% | -6.4 | O=C1N=c2ccccc2=C1c1sc(=O)[nH]c1O | 17.0% | -3.4%
1.1% | -11.8 | COc1ccccc1CN=C1Nc2ccccc2CS1 | 19.8% | -60.5%
-1.0% | -5.8 | Cc1ccc(C(=O)N2C(CC(=O)Nc3ccc(Cl)cc3)C(=O)NC3CCCCC32)cc1 (stereo not given) | -7.0% | 26.1%
-1.5% | -5.6 | O=C(CSc1cn(CCNC(=O)c2cccs2)c2ccccc12)NCc1ccccc1 | -5.6% | 7.0%
-0.3% | -2.5 | CCOC(=O)C(=Cc1ccc(-c2ccsc2C(=O)OC)o1)C(=O)OCC | -4.7% | 1.8%
3.7% | x | CCc1nnc(NC(=O)c2cc3c(s2)CCCCC3)s1 | -7.9% | x
-2.8% | x | CC1(C)CC(=O)C=C(c2ccc3[nH]ccc3c2)C1 | -3.3% | x
-7.3% | -10.5 | CSc1ccc(S(=O)(=O)NCc2ccccc2Cl)cc1 | -12.1% | -3.4%
2.2% | -10.5 | Cn1cccc1C(=O)NC(=O)COC(=O)CC12CC3CC(CC(C3)C1)C2 | 0.3% | -6.0%
0.0% | x | CCCNS(=O)(=O)c1ccc(OCC(=O)Nc2ccc3c(c2)OCCO3)c(C)c1 | -11.0% | x
-0.9% | -2.5 | CCCCN1C(=O)C(O)(CC(=O)c2ccccc2OC)c2ccccc21 (stereo not given) | -13.4% | -2.8%
4.1% | x | CC(C)C(NC(=O)c1ccc(Cl)cc1Cl)C(=O)N1CCN(S(=O)(=O)c2ccccc2)CC1 (stereo not given) | -16.0% | x
1.3% | 1.7 | O=C(CCn1c(=S)oc2ccccc21)Nc1cccc(F)c1 | 7.1% | -8.8%
1.5% | x | CS(=O)(=O)N1CCN=C1SCc1ccc(Br)cc1 | 15.9% | -2.2%
u | 5.7 | CCOc1ccc(/C(O)=C2/C(=O)C(=O)N(CCN(CC)CC)C2c2ccco2)cc1 (stereo not given) | u | -16.1%
-0.3% | x | COC(=O)c1ccccc1S(=O)(=O)NNC(=O)c1ccccc1-n1cccc1 | 9.1% | 0.1%
-2.9% | x | COC(=O)c1cc(S(=O)(=O)N(Cc2ccccc2)C(C)(C)C)c[nH]1 | u | 20.1%
-7.0% | -24.3 | CC(=O)c1ccc(NC(=O)c2ccc(CNc3c(N4CCOCC4)c(=O)c3=O)cc2)cc1 | 12.1% | -0.4%
2.7% | x | CS(=O)(=O)Cc1nc2ccccc2n1CC(=O)Nc1cccc(S(=O)(=O)N2CCCC2)c1 | 10.6% | x
-0.7% | x | CCN(CC)CCC(=O)N1c2ccccc2CCc2ccc(NC(=O)OC(C)C)cc21 | 19.6% | -8.1%
u | u | Cc1ccc(S(=O)(=O)N(C(=O)c2ccncc2)c2ccc(OC(=O)c3ccncc3)cc2)cc1 | -6.0% | -2.4%
0.0% | x | CCOc1ccc2nc(N3CCCC(C(=O)NC4CCCC4)C3)sc2c1 (stereo not given) | 1.0% | -13.7%
0.9% | x | CCn1ccnc1C(O)(c1ccccc1)c1ccccc1 | 8.6% | 0.5%
2.9% | x | CC(C)c1ccccc1OCCCCCN1CCOCC1 | -21.1% | x
-0.6% | x | Cc1ccc(CNC(=O)C2CCC(=O)N(CCc3ccccn3)C2)s1 (stereo not given) | 7.3% | -5.7%

Reformatted: 2 of the compounds above
O=C(c1ccco1)N1CCN(S(=O)(=O)c2ccccc2[N+](=O)[O-])CC1
  Rango complex inh: -4.3%	GLA inh pH 4.5: 2.2	Rango release inh: -13.4%	miR-21 reporter: -5.4%
COc1cccc(CC(=O)Nn2c(C)nc3ccccc3c2=O)c1
  Rango complex inh: 3.4%	GLA inh pH 4.5: 8.5	Rango release inh: -7.1%	miR-21 reporter: -0.8%

Rewritten with values ahead of the structure: two of the compounds above
Rango complex inh	GLA inh pH 4.5	Rango release inh	miR-21 reporter	Molecule
-0.7%	x	19.6%	-8.1%	CCN(CC)CCC(=O)N1c2ccccc2CCc2ccc(NC(=O)OC(C)C)cc21
u	u	-6.0%	-2.4%	Cc1ccc(S(=O)(=O)N(C(=O)c2ccncc2)c2ccc(OC(=O)c3ccncc3)cc2)cc1

An excerpt from above in order of the Rango release inh value, high to low:
Rango complex inh | GLA inh pH 4.5 | Structure | Rango release inh | miR-21 reporter
1.7% | -2.1 | CCCCC1=C([O-])C2N=CC=CC2=[N+](c2ccccn2)C1=O (stereo not given) | 38.3% | 1.4%
1.1% | -11.8 | COc1ccccc1CN=C1Nc2ccccc2CS1 | 19.8% | -60.5%
1.4% | 8.8 | O=C(Nc1ccc(NC(=O)c2ccco2)c(Cl)c1)c1cccc([N+](=O)[O-])c1 | 3.7% | 2.5%
-0.5% | -7.3 | C=CCNC(=O)/C(=C/c1cn(-c2ccccc2)nc1-c1cccc([N+](=O)[O-])c1)NC(=O)c1ccccc1 | -6.1% | -4.9%
u | -13.1 | CCCn1c(N/N=C\C=C\c2ccccc2)nc2c1c(=O)[nH]c(=O)n2C | -10.3% | -4.4%

Next entries:
Rango complex inh | GLA inh pH 4.5 | Structure | Rango release inh | miR-21 reporter
-3.3% | x | Cc1ccc(OCCC(=O)N(CC(=O)Nc2ccccc2C(F)(F)F)Cc2ccco2)cc1 | 5.8% | x
3.7% | 3.4 | Cc1c(CN2CCC(CO)(CCOc3ccccc3)CC2)[nH]c2ccc(Cl)cc12 | -6.8% | u
2.8% | -5.5 | Cc1ccc(C(=O)N/C(=C/c2cn(-c3ccccc3)nc2-c2ccccc2)C(=O)O)cc1 | -11.1% | -0.7%
u | -5.5 | O=C(CSc1nnnn1-c1ccccc1)CSc1nnnn1-c1ccccc1 | -9.8% | 1.3%
u | -26.7 | CCN(CC)c1nc(C(N)=O)cc(-c2ccccc2)n1 | -12.0% | -6.0%
-1.1% | x | COC(=O)c1ccc(C(=O)N2CCCC(Nc3ccc(F)c(F)c3)C2)cc1 (stereo not given) | 12.8% | -3.5%
-3.3% | -0.4 | CCC(C)c1ccc(NC(=S)NC2CCN(Cc3ccccc3)CC2)cc1 (stereo not given) | 3.1% | 26.7%
0.4% | -5.2 | CC(=O)Nc1ncc(Cc2cc(Cl)ccc2Cl)s1 | -17.1% | -9.0%
5.1% | x | NCCCn1c(C(=O)c2ccc(Cl)cc2)c2ccc(C(F)(F)F)cc2[n+]1[O-] | 0.6% | x
-2.2% | x | O=C(N/N=C\c1ccccn1)c1cccc(C(=O)N/N=C\c2ccccn2)n1 | -14.0% | x
u | 0.1 | O=C(NCCc1ccccc1)/C(=C\c1ccc([N+](=O)[O-])cc1)NC(=O)c1ccc(Br)cc1 | -1.3% | 2.8%
-1.5% | x | CCOc1ccc(NC(=O)CN(C)C(=O)c2ccccc2OCCOc2ccccc2)cc1OCC | -15.2% | x
0.3% | -7.1 | CN1CCN(CC(O)(c2ccc(Cl)cc2)c2ccc(Cl)cc2)CC1 | 12.7% | 12.7%
2.4% | 5.5 | O=C(Cn1c(C(F)(F)F)nc2ccccc21)Oc1cccc(C(F)(F)F)c1 | 2.3% | 2.9%
-2.4% | 1.3 | COc1ccc(OCCCNCCc2ccccc2)cc1 | -12.8% | -7.8%
4.7% | x | C=CCn1c(SCC(=O)Nc2ccc(OC)cc2)nnc1-c1cnccn1 | 0.8% | -0.4%
2.8% | x | Cc1csc(NC(=O)C2CC(=O)N(c3ccc(C)c(C)c3)C2)n1 (stereo not given) | -1.0% | -0.7%
u | -20.1 | C=CCN1C=CC(=C/C=C(/C#N)C(=O)OCC)C=C1 | u | -13.6%
-1.3% | x | COc1ccc(Cl)cc1C(=O)NNC(=O)c1csc(N2CCOCC2)n1 | -3.7% | x
-2.2% | -1.6 | CCC(=O)Nc1cc(OC)cc(OC)c1 | -8.3% | 4.1%
6.5% | x | Cc1ccc(CNc2ccc([N+](=O)[O-])cc2C(N)=O)cc1 | 21.2% | x

Bioassay records (PubChem)
